# Bead autofluor – flagged as autofluorescent in microsphere protease counterscreen | compound autofluorescence counterscreen, microsphere flow cytometry; stronger effect = higher value | fluorescence intensity (no concentration beside the values) | hit rate 3.1% among 360,000;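 active = at least 3 SD above the mean of all compounds, about 16000 in these data; inconclusive = too few beads counted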;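 also: 100 nL of 1 mM stock went into each well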
# BJeLR viability – MLPCN primary cell-based screen for lethality selective to Ras in HRASV12 cells | BJeLR (HRASV12) viability, CellTiter-Glo ATP luminescence, 48 h; reference of the scale not given here | inhibition, % (no concentration beside the values) | hit rate 0.17% among 300,000 | AID 1554, 2009;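 active = replicate mean above 50%; inconclusive = above 50% but judged a plate artefact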;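 also: 50 nL library stock added to about 25 µL; numbers are from one replicate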
# Mtb hypoxia rep – PubChem AID 1159583; hit rate 0.1% among 300,000; M. tuberculosis hypoxia-regulated fluorescent reporter, fluorescence; fluorescence inhibition, % (test concentration not listed);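 active = 35 to 45% if threefold the growth effect, above 45% if 1.5-fold the growth effect; inactive = the rest, general growth blockers included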;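 also: wells of about 50 µL received 100 nL stock; 0% = vehicle wells and 100% = reference inhibitor wells; whole bacteria with a GFP reporter of the hypoxia response; strong numbers were not always called active; many hits fall short of the cut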
# PrP 5UTR inh – inhibition of PrP 5' UTR reporter expression. cell-based PrP 5' UTR mRNA reporter, plate reader. inhibition, % (no concentration beside the values). hit rate 0.35% among 340,000. AID 488862, 2010;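 active = every replicate at 50% or more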;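 also: 0 = median of the neutral control wells; tested in H4 reporter cells; numbers are from one replicate; inactives centre near -14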
# ugtP null kill – growth inhibition of ugtP-null S. aureus, primary screen, RN4220 ugtP deletion, OD600; 16 h; some inactives read as strong as hits; hit rate 0.54% among 330,000; growth inhibition, % (no concentration beside the values);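 active = z-score under -3 and OD600 up to 0.15 on both plates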;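 also: plate controls were untreated wells for no effect and antibiotic for full effect; wells of about 80 µL received 100 nL stock; the first replicate is given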
# Sa RN4220 lethal – growth inhibition of S. aureus RN4220, primary screen, OD600 | 16 h | inhibition, % (test concentration not listed) | hit rate 0.33% among 330,000 | AID 1259311, 2017;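 active = z-score of -3 or lower and OD600 up to 0.18 on both plates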;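 also: plate controls were untreated cells for no effect and reference antibiotic for full effect; stock transfer was 100 nL into about 80 µL; one replicate is shown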
# Mtb hypoxia rep growth – also measured in Mtb hypoxia rep; calls as there; growth inhibition, %; measured here: M. tuberculosis growth (absorbance);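 0% = vehicle and 100% = reference antibiotic; read after six days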
# Active calls of the source: *; ? = inconclusive; / = not tested or not shown. Random draw from the library; 4% or so of the library scored in one or more.
SMILES,Bead autofluor,BJeLR viability,Mtb hypoxia rep,Mtb hypoxia rep growth,PrP 5UTR inh,ugtP null kill,Sa RN4220 lethal
CC(=O)Nc1ccccc1/C=C/c1ccc2c(C)cc(C)c(O)c2n1,2597,-7,1,-3,-18,0,0.8
Cc1cccc(NCN2C(=O)C3C4C=CC(C4)C3C2=O)c1 (stereo unspecified),12656,-3,3,5,-16,10,7.2
CC(CCl)OC(C)CCl (stereo unspecified),4803,/,13,12,-2,4,5.3
CC(=O)Nc1ccc(N(CC(O)Cn2c3ccccc3c3ccccc32)S(=O)(=O)c2ccc(C)cc2)cc1 (stereo unspecified),7199,-1,16,8,-16,-4,3.8
COC(=O)c1ccc(C2/C(=C(\O)c3ccc4c(c3)OCCO4)C(=O)C(=O)N2c2nnc(C)s2)cc1 (stereo unspecified),4767,8,8,7,-29,3,0.7
Cc1nnsc1NC(=O)OCc1ccc(C(C)(C)C)cc1,2890,20,0,2,-17,-17,9.8
Cc1ccc(NC(=O)c2c3c(nc4ccccc24)CCC3)cc1S(=O)(=O)N(C)C,4702,13,-7,7,-11,-7,-1.1
Cc1ccc(C)c(-c2nnc(OCC(=O)Nc3cc(C)on3)c3ccccc23)c1,3449,8,/,/,-5,6,9.2
O=C(N=NC(=O)c1ccco1)c1ccc2c(O)n(N3C(=O)c4ccccc4C3=O)c(O)c2c1,2071,-6,-1,-2,-15,0,1.8
COCc1cc(/C=N\NC(=O)c2ccc(Cl)cc2)ccc1OC,2027,0,/,/,-21,/,/
O=C(COc1nncc2ccccc12)Nc1ccc(Br)cc1F,3998,-1,5,3,-15,2,-2.5
CCOc1ccccc1NC(=O)C1CCCN(S(=O)(=O)c2cccc3nsnc23)C1 (stereo unspecified),/,9,11,5,-12,-3,2.1
C=CCN(C(=O)OC(C)(C)C)S(=O)(=O)NCc1ccccc1,3888,/,10,16,-7,6,14
O=C(Cn1cc(/C=C\[N+](=O)[O-])c2ccccc21)Nc1ccccc1,/,34,4,5,-15,2,5.2
Cc1nc2cc(CO)ccc2s1,2872,3,6,3,-10,5,7.4
Cn1cc(S(=O)(=O)Nc2ccc(Oc3ccccc3)cc2)c(=O)n(C)c1=O,6571,-10,11,-3,-9,9,2.5
Cc1ccc2cccc(S(=O)(=O)Nc3c(C)n(C)n(-c4ccccc4)c3=O)c2n1,10404,-5,3,5,-25,3,0.2
Cc1cc(O)c(CN2CCN(c3ccccc3)CC2)cc1C,5746,2,/,/,-8,-14,4.9
O=C1C2=C(C(c3ccccc3)=NCCN2)C(c2cccc([N+](=O)[O-])c2)N1c1ccccc1 (stereo unspecified),4637,3,-5,1,-27,0,0.9
CCOC(=O)N1CCN(c2ccc(N3C(=O)CCCC3=O)cc2[N+](=O)[O-])CC1,4735,-4,11,-5,-21,11,2.7
Cc1cccc(-c2oc(C)c(C)[n+]2[O-])c1,8400,-2,3,-2,-7,15,3.6
CS(=O)(=O)Cc1cccc(C(=O)NC2CCSc3ccccc32)c1 (stereo unspecified),6063,5,1,4,-1,6,1.3
Nc1nonc1-n1nnc(C(=O)NN=Cc2ccc(Cl)cc2)c1-c1ccc2c(c1)OCO2,/,/,2,-8,/,7,-2.5
CCCn1c(CN2CCN(C(=O)OCC)CC2)nc2cc(NC(C)=O)ccc21,3848,9,10,7,-21,0,2.1
CN(C(=O)CSc1ccccc1C(=O)O)C1CCCCC1,10612,-5,5,4,-19,10,4.7

# Next part.
SMILES,Bead autofluor,BJeLR viability,Mtb hypoxia rep,Mtb hypoxia rep growth,PrP 5UTR inh,ugtP null kill,Sa RN4220 lethal
CCCCN(Cc1ccc(C(=O)N[C@H](C(=O)O)C(C)C)cc1)C(=O)C(c1ccccc1)c1ccccc1,4149,0,-12,-8,-13,5,0.9
O=C(Nc1nnc(-c2cccs2)o1)c1cc(-c2ccccc2)nc2ccccc12,4436,-4,/,/,-2,/,/
Cc1ccc(NS(=O)(=O)N2CCOCC2)cc1,5618,-3,-4,0,-17,7,2.3
COc1cc(NC(=O)COC(=O)c2n[nH]c3ccccc23)c(C)cc1[N+](=O)[O-],4385,1,4,-1,-17,-15,11
Cc1ccc(N2C(N)=C(C#N)C(c3cc(CN4CCOCC4)cs3)C3=C2CC(C)(C)CC3=O)cc1 (stereo unspecified),3931,-23,-5,6,-29,0,-3.0
Cc1noc(NS(=O)(=O)c2ccc(NC(=O)C(F)(F)F)cc2)c1C,3532,-18,/,/,9,13,7.7
Cc1[nH]nc(N=CC2=C(O)CC(c3ccco3)CC2=O)c1-c1ccc(Cl)cc1 (stereo unspecified),23437*,-8,3,5,-11,38,79
Cc1ccc(NC(=O)COc2cccc(-n3cnnn3)c2)cc1S(=O)(=O)N1CCOCC1,3134,/,0,-4,-10,-2,-0.1
NC(=O)C(=O)NN=C1CCc2ccccc21,/,/,16,8,/,3,7.2
CC(C)c1ccc(N(CC(=O)NC2CCCCC2)C(=O)CNC(=O)c2ccco2)cc1,5846,-5,-4,0,-4,1,1.5
Cc1ccc(C(=O)NCCNS(=O)(=O)c2ccccc2)cn1,6025,-7,-3,0,-18,2,1.5
CC(=O)C1=C(O)C(=O)N(CCCn2ccnc2)C1c1ccc(Cl)cc1 (stereo unspecified),4444,-3,8,12,-19,10,2.8
CCC(=O)N1CCc2cc(Br)cc(S(=O)(=O)CCC(=O)NCC3CCCO3)c21 (stereo unspecified),3758,2,-1,11,15,0,-0.5
COc1ccc(CNC(=O)CCNS(=O)(=O)c2ccc(C)cc2)cc1,4607,1,/,/,-8,2,-2.5
O=C(NCCc1ccc(F)cc1)NC12CC3CC(CC(C3)C1)C2,5152,6,/,/,-68,-2,0.0
CC(C)c1ccc(C(=O)NCCCN2CCOCC2)cc1,5365,-2,3,2,-31,-1,2.4
CS(=O)(=O)N1CCCCC1CCN1CCCCC1 (stereo unspecified),3035,/,11,2,-27,1,1.1
O=C(COC(=O)CNC(=O)c1ccc(Br)cc1)NCCC1=CCCCC1,4644,4,4,2,-19,17,8.8
CCOc1ccccc1OCCCC(=O)N(CC)CC(=O)Nc1c(F)cccc1F,?,-3,4,4,-10,-1,1.1
CC(=O)C(Cc1ccccc1)NC(=O)CN(C)Cc1ccccc1Cl (stereo unspecified),3891,-5,-20,-12,2,-5,5.5
COCCCNC(=O)CCc1nc2cccnc2n1Cc1ccc(OC)cc1,7620,-4,4,-2,-16,17,3.7
CCCCCCCC(=O)NC1=NC(=O)C(C)(C)S1,4019,6,6,-4,-11,13,5.7
CC1CC(N(C(=O)c2ccco2)c2ccccc2)c2ccccc2N1C(=O)c1ccco1 (stereo unspecified),3373,-5,3,5,-17,-7,-2.0
CCC(=O)N(C)CCc1cc2c(c(OC)c1C=NNC(=O)c1ccccc1O)OCO2,/,/,2,1,/,10,6.6
O=S(=O)(c1cccc(Cl)c1)N1CCSc2ccccc21,?,/,7,12,-10,2,11

# (listing goes on)
SMILES,Bead autofluor,BJeLR viability,Mtb hypoxia rep,Mtb hypoxia rep growth,PrP 5UTR inh,ugtP null kill,Sa RN4220 lethal
COc1ccc(-n2nc(C(=O)NCC(=O)Nc3cccc(Cl)c3)c3ccccc3c2=O)cc1,5240,-2,-3,0,-4,-21,19
Cc1cccc(N2C(=O)C(Cl)=C(Nc3c(C)n(C)n(-c4ccccc4)c3=O)C2=O)c1C,8129,4,17,12,-23,11,4.3
CCOc1ccc(C2=CS/C(=C(\C#N)c3nnc4n3CCCCC4)N2CC)cc1,5075,-5,5,2,-5,-8,1.1
COc1ccc(C2SCC(=O)Nc3c2c(=O)[nH]n3C2CCCCCC2)cc1 (stereo unspecified),5946,-3,-5,4,-7,-4,0.2
C(=N\Nc1nnnn1-c1ccccc1)/c1ccncc1,2407,1,/,/,1,/,/
CCN(CC)S(=O)(=O)c1cccc(C(=O)NC2=NCCS2)c1,4143,-6,12,0,-31,7,3.5
CC1(C)CC(=O)C2=C(C1)NC(SCC(=O)Nc1ccccc1)=C(C#N)C2c1ccco1 (stereo unspecified),3143,-1,/,/,2,/,/
N#C/C(=C\C1CC=CCC1)c1nc2ccccc2[nH]1 (stereo unspecified),9197,-2,-3,-2,-32,-25,-0.2
CCC(=O)n1nc(-c2cccnc2)nc1NCc1cccs1,4516,-4,13,-5,-9,4,8.9
Cc1cccc(NC(=S)N/N=C/c2c[nH]c3ccccc23)c1,4329,21,/,/,-46,/,/
O=C(CC(=O)NN=Cc1c(Cl)cccc1Cl)NCc1cccnc1,/,/,2,-4,/,9,1.3
O=C(OCC(=O)N1CCCC1)c1ccccc1OCc1ccccc1,3620,-5,1,7,-11,-5,-8.7
CC(OC(=O)Cc1cccc(C(F)(F)F)c1)C(=O)Nc1ccc(Cl)cn1 (stereo unspecified),4479,-1,0,-2,-9,9,1.1
Cc1cccc(N2CC(C(=O)Nc3nc4ccc(S(C)(=O)=O)cc4s3)CC2=O)c1C (stereo unspecified),5741,3,12,1,-16,-7,2.1
COc1ccc(S(=O)(=O)N(CC(C)C)CC(C)C)c2cccnc12,5831,3,5,-3,5,-2,14
COc1ccc(C(C)=O)cc1CSc1nnc(Nc2ccc(C)cc2)s1,9068,-18,9,-2,-6,-11,-8.6
COc1ccc(C(=O)COC(=O)CNC(=O)C2CCCCC2)c(OC)c1,3448,1,1,8,-23,-4,8.6
COc1ccc(N2CCN(C(=O)CCN3C(=S)NC(C)(C)CC3C)CC2)cc1 (stereo unspecified),4336,-14,11,2,-1,2,-0.7
Cc1ccc(C)c(S(=O)(=O)N2CCN(C(=O)c3cccn3C)CC2)c1,4555,-2,6,0,-4,11,5.4
Cc1cc(C(=O)N2CCCC(Nc3ccc(F)cc3)C2)c(C)o1 (stereo unspecified),4275,4,13,-5,0,12,3.7
COc1cc(OC)cc(-c2c(-c3cccs3)c3cc(-c4ccc(OC)c(F)c4)ccc3n2C)c1,3516,/,13,5,-28,3,-13
CC(C)(C)OC(=O)NCCCC[C@@H](C(=O)N1CCN(C(=O)OC(C)(C)C)CC1)n1cc(C(CO)NC(=O)OC(C)(C)C)nn1 (stereo partly specified),3910,-7,/,/,-14,/,/
Cc1cc(=O)c2ccc(C(F)(F)F)cc2[nH]1,5883,-1,3,-3,-13,4,4.4
CCC(CO)Oc1cc(NC(=O)c2ccccc2Cl)c2ncn(C(C)C)c2c1 (stereo unspecified),3286,/,10,7,-11,-15,2.6
Cc1ccc(CN(C(=O)c2sc3ccccc3c2Cl)C2CCS(=O)(=O)C2)cc1 (stereo unspecified),3878,15,3,6,-43,-10,4.9

# (list continues)
SMILES,Bead autofluor,BJeLR viability,Mtb hypoxia rep,Mtb hypoxia rep growth,PrP 5UTR inh,ugtP null kill,Sa RN4220 lethal
O=C(CSc1nccc(=O)[nH]1)Nc1cc(C(F)(F)F)ccc1N1CCOCC1,3112,2,8,3,-20,0,-0.9
CCOC(=O)C1=C(C)N(C)C2(C)CC1c1ccccc1O2 (stereo unspecified),2559,6,13,3,5,10,9.2
COc1cc(/C=C/C(=O)O)cc(S(=O)(=O)NC2CCCC2)c1OC,4746,0,5,5,-31,7,0.5
Cc1ccc(NC(=O)c2ccc(CSc3ccccn3)cc2)cc1,2418,5,6,5,-47,2,2.7
Brc1ccc(-c2nnc(-c3ccccc3Br)o2)cc1,9551,-1,-6,-12,-215,-4,-1.1
COc1ccc(Cl)cc1C(=O)C1CCCN(Cc2cnc(C)s2)C1 (stereo unspecified),4886,2,11,4,-5,10,3.5
Cc1ccc(C(=O)Nc2cccc(C(=O)O)c2)cc1S(=O)(=O)N1CCOCC1,5923,-9,3,-4,-1,0,4.6

# Some of the entries above, reformatted:
# Below each compound – Bead autofluor	BJeLR viability	Mtb hypoxia rep	Mtb hypoxia rep growth	PrP 5UTR inh	ugtP null kill	Sa RN4220 lethal
- COc1ccc(Cl)cc1C(=O)C1CCCN(Cc2cnc(C)s2)C1 (stereo unspecified)
    4886	2	11	4	-5	10	3.5
- Cc1ccc(C(=O)Nc2cccc(C(=O)O)c2)cc1S(=O)(=O)N1CCOCC1
    5923	-9	3	-4	-1	0	4.6

# 4 entries picked at random from the list so far:
SMILES,Bead autofluor,BJeLR viability,Mtb hypoxia rep,Mtb hypoxia rep growth,PrP 5UTR inh,ugtP null kill,Sa RN4220 lethal
Cc1ccc(CN(C(=O)c2sc3ccccc3c2Cl)C2CCS(=O)(=O)C2)cc1 (stereo unspecified),3878,15,3,6,-43,-10,4.9
Cc1ccc(NS(=O)(=O)N2CCOCC2)cc1,5618,-3,-4,0,-17,7,2.3
Cc1cccc(NC(=S)N/N=C/c2c[nH]c3ccccc23)c1,4329,21,/,/,-46,/,/
Cc1ccc(NC(=O)c2c3c(nc4ccccc24)CCC3)cc1S(=O)(=O)N(C)C,4702,13,-7,7,-11,-7,-1.1
